Vaccinia inh – Vaccinia orthopox stage-specific inhibition | Vaccinia-infected cells, mCherry/Venus stage reporter fluorescence; active compounds read low; some inactives read as strong as hits | activity change (mCherry), % (no concentration beside the values) | hit rate 0.01% among 89,000;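 active = mCherry past -33% and 40 or more points under the early reporter, replicates agreeing; inconclusive = past -33% without that gap or agreement; tested in A549 cells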;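 note: scaled between vehicle wells and reference inhibitor wells; 23 nL library stock went into each well; one replicate is shown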
Vaccinia inh Venus – also measured in Vaccinia inh; calls as there; activity change (Venus), %; measured here: Venus reporter, other viral stage;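 negative = less Venus signal; first of two replicates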
* hit, by the source's call. A portion of the library (hit frequency here may not be typical).

Sample of the layout:
How did CCCNC(=O)N[C@@H]1CC[C@@H](CCn2cc(-c3cccc(F)c3)nn2)O[C@@H]1CO do in these assays?
Vaccinia inh: 3; Vaccinia inh Venus: 3

How did OC[C@H]1[C@@H](c2ccc(-c3ccccc3)cc2)[C@@H]2CN(Cc3ccccn3)CCCCN12 do in these assays?
Vaccinia inh: 29; Vaccinia inh Venus: 12

The whole of this part, from the start:
How did CCCNC(=O)N[C@@H]1CC[C@@H](CCn2cc(-c3cccc(F)c3)nn2)O[C@@H]1CO do in these assays?
Vaccinia inh: 3; Vaccinia inh Venus: 3

How did OC[C@H]1[C@@H](c2ccc(-c3ccccc3)cc2)[C@@H]2CN(Cc3ccccn3)CCCCN12 do in these assays?
Vaccinia inh: 29; Vaccinia inh Venus: 12

Results for COc1cccc(NC(=O)N(C)C[C@H]2Oc3cc(-c4ccccc4OC)ccc3S(=O)(=O)N([C@@H](C)CO)C[C@@H]2C)c1 ?
Vaccinia inh: -35; Vaccinia inh Venus: -28

Results for CN(C)C(=O)[C@H]1[C@H](CO)[C@H]2Cn3c(ccc(C4=CCCCC4)c3=O)[C@@H]1N2CC1CC1 ?
Vaccinia inh: 3; Vaccinia inh Venus: 10

How did C[C@H]1CN([C@@H](C)CO)C(=O)c2c(c3ccccc3n2C)-c2ccccc2CO[C@H]1CN(C)C(=O)Nc1ccc2c(c1)OCO2 do in these assays?
Vaccinia inh: inconclusive

How did C[C@@H]1CN([C@@H](C)CO)C(=O)c2cc(NC(=O)Nc3ccc(C(F)(F)F)cc3)ccc2O[C@@H]1CN(C)C(=O)Nc1ccccc1 do in these assays?
Vaccinia inh: -24; Vaccinia inh Venus: -16

What do the screens show for `Cc1cccc(S(=O)(=O)N(C)C[C@@H]2OCc3cnnn3CCCC(=O)N([C@@H](C)CO)C[C@H]2C)c1`?
Vaccinia inh: 13; Vaccinia inh Venus: 22

What do the screens show for `CO[C@@H]1CN(C)C(=O)c2cc(NC(C)=O)ccc2OC[C@H](C)N(C(=O)c2ccccc2)C[C@@H]1C`?
Vaccinia inh: 12; Vaccinia inh Venus: 9

What do the screens show for `C[C@@H]1CN([C@H](C)CO)C(=O)CCCn2cc(nn2)CO[C@@H]1CN(C)S(=O)(=O)c1ccc(C#N)cc1`?
Vaccinia inh: 19; Vaccinia inh Venus: 14

Results for [N-]=[N+]=NCc1ccccc1C[C@]1(C(=O)NCc2ccccc2)COC(c2ccc(OCCCO)cc2)=N1 ?
Vaccinia inh: -4; Vaccinia inh Venus: -12

How did C[C@@H]1CN([C@@H](C)CO)C(=O)c2cccc(NS(=O)(=O)c3ccc(F)cc3)c2O[C@@H]1CN(C)C(=O)Nc1ccc(C(F)(F)F)cc1 do in these assays?
Vaccinia inh: -28; Vaccinia inh Venus: -27

What do the screens show for `CCCC(=O)Nc1ccc2c(c1)C(=O)N(C)[C@H]1CC[C@H](CC(=O)O)O[C@@H]1CO2`?
Vaccinia inh: 5; Vaccinia inh Venus: 7

How did N#Cc1ccc(-c2ccc(C3[C@@H]4CN(C(=O)c5ccccn5)C[C@H]3N4)cc2)cc1 (stereo partly drawn) do in these assays?
Vaccinia inh: inconclusive; Vaccinia inh Venus: 6

Results for C/C=C/c1ccc2c(c1)O[C@H](CN(C)C(=O)Nc1ccc(OC)cc1)[C@@H](C)CN([C@@H](C)CO)S2(=O)=O ?
Vaccinia inh: -28; Vaccinia inh Venus: -26

How did O=C(NC1CCCCC1)N[C@@H]1CC[C@H](CCNS(=O)(=O)c2ccc(F)cc2)O[C@@H]1CO do in these assays?
Vaccinia inh: -13; Vaccinia inh Venus: -2

Results for COc1ccc(S(=O)(=O)Nc2cccc3c2O[C@H](CN(C)Cc2ccncc2)[C@H](C)CN([C@H](C)CO)C3=O)cc1 ?
Vaccinia inh: 22; Vaccinia inh Venus: 6

How did CO[C@@H](CN(C)S(=O)(=O)c1ccc(Cl)cc1)[C@H](C)CN(Cc1ccccc1Cl)[C@@H](C)CO do in these assays?
Vaccinia inh: -23; Vaccinia inh Venus: -12

What do the screens show for `COCCNC(=O)C[C@H]1CC[C@@H](NC(=O)NC2CCCC2)[C@@H](CO)O1`?
Vaccinia inh: -19; Vaccinia inh Venus: -3

How did C[C@@H]1CN([C@@H](C)CO)C(=O)c2cc(-c3ccccc3F)cnc2O[C@@H]1CN(C)Cc1ccccc1 do in these assays?
Vaccinia inh: -13; Vaccinia inh Venus: -8

What do the screens show for `Cc1ccc(S(=O)(=O)N(C)C[C@@H]2Oc3cc(-c4cccc(F)c4)ccc3S(=O)(=O)N([C@H](C)CO)C[C@@H]2C)cc1`?
Vaccinia inh: -17; Vaccinia inh Venus: -16

Next section, overlapping the part above by two compounds.
How did C[C@@H]1CN([C@@H](C)CO)C(=O)c2cc(-c3ccccc3F)cnc2O[C@@H]1CN(C)Cc1ccccc1 do in these assays?
Vaccinia inh: -13; Vaccinia inh Venus: -8

What do the screens show for `Cc1ccc(S(=O)(=O)N(C)C[C@@H]2Oc3cc(-c4cccc(F)c4)ccc3S(=O)(=O)N([C@H](C)CO)C[C@@H]2C)cc1`?
Vaccinia inh: -17; Vaccinia inh Venus: -16

How did CN1CCN(C(=O)C2=C[C@@H](c3coc4ccccc4c3=O)C[C@@H](OCCCCO)O2)CC1 do in these assays?
Vaccinia inh: 17; Vaccinia inh Venus: 3

How did C[C@@H]1CN([C@@H](C)CO)C(=O)c2cc(NC(=O)Nc3ccc4c(c3)OCO4)ccc2O[C@@H](C)CCCCO[C@H]1CN(C)CC1CCCCC1 do in these assays?
Vaccinia inh: inconclusive

How did CCN(C[C@@H]1[C@H](c2ccccc2)[C@H](CO)N1C(C)=O)C(=O)c1ccccn1 do in these assays?
Vaccinia inh: 4; Vaccinia inh Venus: 6

How did CC(C)NC(=O)N1Cc2cc(C(=O)NC3Cc4ccccc4C3)nc(-c3cccc(-c4cccnc4)c3)c2[C@@H]1CCO do in these assays?
Vaccinia inh: inconclusive

Results for COc1ccc(S(=O)(=O)N(C)C[C@H]2OCCCC[C@H](C)Oc3ccc(NS(=O)(=O)c4ccccc4)cc3C(=O)N([C@H](C)CO)C[C@@H]2C)cc1 ?
Vaccinia inh: inconclusive

What do the screens show for `CC(=O)Nc1ccc2c(c1)C(=O)N(C)[C@@H]1CC[C@@H](CC(=O)Nc3cn(C)nc3C)O[C@@H]1CO2`?
Vaccinia inh: 4; Vaccinia inh Venus: 12

What do the screens show for `COCC(=O)Nc1ccc2c(c1)OC[C@@H](C)N(C(=O)c1ccccc1)C[C@H](C)[C@H](OC)CN(C)C2=O`?
Vaccinia inh: 20; Vaccinia inh Venus: 12

What do the screens show for `C[C@H](O)C#Cc1cnc2c(c1)C(=O)N([C@H](C)CO)C[C@H](C)[C@@H](CN(C)CC1CCCCC1)O2`?
Vaccinia inh: 20; Vaccinia inh Venus: 8

What do the screens show for `C[C@@H]1CN([C@H](C)CO)C(=O)c2cc(C#CC(C)(C)O)cnc2O[C@H]1CN(C)Cc1cncnc1`?
Vaccinia inh: 6; Vaccinia inh Venus: 7

What do the screens show for `CC(C)CC#Cc1cnc2c(c1)C(=O)N([C@@H](C)CO)C[C@@H](C)[C@@H](CN(C)Cc1ccccc1F)O2`?
Vaccinia inh: -19; Vaccinia inh Venus: -18

Results for CO[C@H]1CN(C)C(=O)c2cc(NC(=O)C3CC3)ccc2OC[C@@H](C)N(C(=O)c2ccccc2)C[C@H]1C ?
Vaccinia inh: 12; Vaccinia inh Venus: 9

Results for O=C(C[C@@H]1CC[C@@H](NS(=O)(=O)c2ccccc2)[C@@H](CO)O1)N1CCN(c2ccccc2)CC1 ?
Vaccinia inh: 4; Vaccinia inh Venus: 10

What do the screens show for `C[C@@H]1CCCCO[C@H](CN(C)CC2CCCCC2)[C@@H](C)CN([C@H](C)CO)C(=O)c2cc(NS(=O)(=O)c3cccs3)ccc2O1`?
Vaccinia inh: -14; Vaccinia inh Venus: -7

Results for COc1cccc(CNC(=O)C[C@@H]2C=C[C@@H](NC(=O)C3CC3)[C@@H](CO)O2)c1 ?
Vaccinia inh: 12; Vaccinia inh Venus: 7

Results for COc1ccc2c3c(n(C)c2c1)[C@@H](CO)N(C(=O)CC1CC1)CC31CN(Cc2ccccc2)C1 ?
Vaccinia inh: -18; Vaccinia inh Venus: -10

How did Cc1cc(C(=O)Nc2ccc3c(c2)C(=O)N(C)[C@H]2CC[C@H](CC(=O)NC4CCCC4)O[C@H]2CO3)no1 do in these assays?
Vaccinia inh: -3; Vaccinia inh Venus: 3

How did C[C@@H]1CN([C@@H](C)CO)C(=O)c2cc(-c3ccc(C#N)cc3)cnc2O[C@@H]1CN(C)C(=O)CC1CC1 do in these assays?
Vaccinia inh: 7; Vaccinia inh Venus: 17

How did O=C(C[C@@H]1C=C[C@@H](NC(=O)c2cccc(F)c2)[C@@H](CO)O1)Nc1nccs1 do in these assays?
Vaccinia inh: -4; Vaccinia inh Venus: -6

Results for COCC(=O)N(C)C[C@H]1Oc2cc(C#C[C@@H](C)O)ccc2S(=O)(=O)N([C@H](C)CO)C[C@H]1C ?
Vaccinia inh: 8; Vaccinia inh Venus: -2

What do the screens show for `Cc1ccc(S(=O)(=O)N(C)C[C@H]2OCCCC[C@@H](C)Oc3ccc(NS(=O)(=O)c4ccc(Cl)cc4)cc3C(=O)N([C@H](C)CO)C[C@@H]2C)cc1`?
Vaccinia inh: -18; Vaccinia inh Venus: -15

Looked up by compound from above (two):
How did O=C(NC1CCCCC1)N[C@@H]1CC[C@H](CCNS(=O)(=O)c2ccc(F)cc2)O[C@@H]1CO do in these assays?
Vaccinia inh: -13; Vaccinia inh Venus: -2

How did O=C(C[C@@H]1C=C[C@@H](NC(=O)c2cccc(F)c2)[C@@H](CO)O1)Nc1nccs1 do in these assays?
Vaccinia inh: -4; Vaccinia inh Venus: -6

More records follow.
Results for C[C@H](CO)N1C[C@H](C)[C@H](CN(C)Cc2ccncc2)Oc2ccc(NS(=O)(=O)c3ccc(F)cc3)cc2C1=O ?
Vaccinia inh: -1; Vaccinia inh Venus: -3

How did O=C(Nc1ccc(F)cc1)N1CC(=O)N2[C@H](C1)[C@H](c1ccc(Br)cc1)[C@@H]2CO do in these assays?
Vaccinia inh: 9; Vaccinia inh Venus: 1

Results for CC(C)C#Cc1ccc2c(c1)O[C@@H](CN(C)CC1CC1)[C@@H](C)CN([C@H](C)CO)S2(=O)=O ?
Vaccinia inh: -5; Vaccinia inh Venus: -16

Results for COc1cccc(S(=O)(=O)N[C@@H]2C=C[C@@H](CC(=O)NCc3ccncc3)O[C@@H]2CO)c1 ?
Vaccinia inh: 34; Vaccinia inh Venus: 31

How did COc1ccc(CN(C)C[C@H]2Oc3ccc(N(C)C)cc3CC(=O)N([C@@H](C)CO)C[C@@H]2C)cc1 do in these assays?
Vaccinia inh: 0; Vaccinia inh Venus: 0

Results for CO[C@@H]1CN(C)C(=O)c2ccc(NS(C)(=O)=O)cc2OC[C@@H](C)N(C(=O)C2CCC2)C[C@@H]1C ?
Vaccinia inh: 0; Vaccinia inh Venus: -7

What do the screens show for `Cc1ccccc1-c1ccc([C@H]2[C@@H](CO)N3CCCCN(S(=O)(=O)c4ccc(F)cc4)C[C@H]23)cc1`?
Vaccinia inh: inconclusive

How did CCC(=O)N(C)C[C@@H]1Oc2ncc(-c3cccc(OC)c3)cc2C(=O)N([C@@H](C)CO)C[C@@H]1C do in these assays?
Vaccinia inh: 12; Vaccinia inh Venus: 4

Results for O=C(Nc1cc(F)ccc1F)N1CCCCN2[C@H](C1)[C@@H](c1ccc(-c3cccnc3)cc1)[C@@H]2CO ?
Vaccinia inh: -20; Vaccinia inh Venus: -24

What do the screens show for `COCC(=O)N1C[C@H](C)[C@@H](OC)CN(C)C(=O)c2ccc(NC(=O)C3CCC3)cc2OC[C@H]1C`?
Vaccinia inh: 5; Vaccinia inh Venus: 6

How did C[C@@H]1CN([C@H](C)CO)S(=O)(=O)c2ccc(C#CC3(O)CCCC3)cc2O[C@H]1CN(C)C do in these assays?
Vaccinia inh: 9; Vaccinia inh Venus: 10

What do the screens show for `COc1ccccc1C#Cc1ccc2c(c1)O[C@@H](CN(C)C)[C@@H](C)CN([C@@H](C)CO)S2(=O)=O`?
Vaccinia inh: inconclusive

What do the screens show for `O=C(C[C@H]1C[C@@H]2c3cc(NC(=O)C4CCC4)ccc3O[C@@H]2[C@H](CO)O1)NCc1ccc2c(c1)OCO2`?
Vaccinia inh: -7; Vaccinia inh Venus: -6

What do the screens show for `C[C@@H]1CN([C@H](C)CO)C(=O)c2cc(NS(=O)(=O)c3cccs3)ccc2O[C@H]1CN(C)C(=O)Nc1cccc2ccccc12`?
Vaccinia inh: 3; Vaccinia inh Venus: 7

How did CO[C@H]1CN(C)C(=O)c2cc(NC(=O)NC3CCCCC3)ccc2OC[C@@H](C)N(C(C)=O)C[C@H]1C do in these assays?
Vaccinia inh: -4; Vaccinia inh Venus: -2

Results for COCC(=O)N1CCCCN2[C@H](CO)[C@@H](c3ccc(-c4cccc(C)c4)cc3)[C@H]2C1 ?
Vaccinia inh: 0; Vaccinia inh Venus: 6

Results for O=C(Nc1cc(F)ccc1F)N1CCCCN2[C@@H](CO)[C@@H](c3ccc(-c4cccnc4)cc3)[C@@H]2C1 ?
Vaccinia inh: -22; Vaccinia inh Venus: -27

Results for Cc1noc(C)c1NC(=O)N(C)C[C@H]1Oc2ccc(NC(=O)Nc3ccc(C(F)(F)F)cc3)cc2C(=O)N([C@H](C)CO)C[C@@H]1C ?
Vaccinia inh: 19; Vaccinia inh Venus: 22

What do the screens show for `C[C@@H]1CCCCO[C@@H](CN(C)C(=O)C2CCCCC2)[C@H](C)CN([C@@H](C)CO)C(=O)c2cc(NC(=O)Nc3ccc(F)cc3)ccc2O1`?
Vaccinia inh: -14; Vaccinia inh Venus: -8
